Marburg entry inh = inhibitors of Marburg virus binding or cell entry; Marburg virus pseudotyped entry inhibition, cell reporter; control for the full effect not named in the record; about a third of the inactives were read at about 46 µM; Potency, µM (series often up to 37.8 µM), inactives show at the highest dose activity change, negative = inhibition, hits mostly inhibitors; actives 1.8% (n = 300,000); AID 540276; active = well fitted inhibition curve with a large enough effect; inconclusive = small, poorly fitted or top-dose-only effect, or effect the other way; inactive = flat fitted curve, though single readings scatter; tested in HEK293 cells; about a fifth of its hits are not listed in these tables; note: % is set by controls: 0 for no effect and ±100 for the full control effect; luciferase read-out
2A StopGo = lowers the luciferase signal of an FMDV 2A StopGo reporter. human cells with a luciferase reporter of 2A StopGo recoding; control for the full effect not named in the record. Potency, µM (series often up to 57.9 µM), inactives show at the top dose signal change, negative = less light. actives 1.2% (n = 410,000); active = well fitted falling curve with a large enough effect; inconclusive = small, poorly fitted or top-dose-only effect; inactive = no such curve, though single readings can be large or run the other way; tested in HEK293T cells; note: % is set by controls: 0 for no effect and ±100 for the full control effect; nearly all actives have a fitted effect of over 45% in size; luciferase light after 4 h
RE007 growth inh = less growth of the S. pombe RE007 Vpr strain. Potency, µM (series often up to 92.2 µM), inactives show at the highest dose activity change, negative = less growth. actives 0.21% (n = 360,000). S. pombe RE007 Vpr strain, BacTiter-Glo ATP luminescence, 24 h; control for the full effect not named in the record; active = well fitted falling curve with a large enough effect; inconclusive = small, poorly fitted or top-dose-only effect; inactive = no such curve, though single readings can be large or run the other way;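 note: % is set by controls: 0 for no effect and ±100 for the full control effect; nearly all actives have a fitted effect of over 50% in size; the assay follows cell death caused by Vpr and the record does not say whether a fall means rescue or toxicity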
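Fission yeast RE007 carrying one integrated HIV-1 vpr copy, seeded at OD 0.01 in PMG+AL medium with 23 nL pinned compound. Grown 24 h at 30 degrees; viability read by BacTiter-Glo luminescence after 5 min.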
Cruzain inh Det = blocks cruzain activity in presence of Triton detergent | purified cruzain, Z-FR-AMC fluorescence, 0.01% Triton | Potency, µM, inactives show max response, negative = inhibition, most hits filed as inhibitors | actives 0.43% (n = 200,000);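 note: plate controls were neutral wells for no effect and buffer without enzyme for full effect; nearly all actives have a fitted effect of over 40% in size; top concentration of the series not given in the record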
Target sequence (P25779 123-467 limits assumed): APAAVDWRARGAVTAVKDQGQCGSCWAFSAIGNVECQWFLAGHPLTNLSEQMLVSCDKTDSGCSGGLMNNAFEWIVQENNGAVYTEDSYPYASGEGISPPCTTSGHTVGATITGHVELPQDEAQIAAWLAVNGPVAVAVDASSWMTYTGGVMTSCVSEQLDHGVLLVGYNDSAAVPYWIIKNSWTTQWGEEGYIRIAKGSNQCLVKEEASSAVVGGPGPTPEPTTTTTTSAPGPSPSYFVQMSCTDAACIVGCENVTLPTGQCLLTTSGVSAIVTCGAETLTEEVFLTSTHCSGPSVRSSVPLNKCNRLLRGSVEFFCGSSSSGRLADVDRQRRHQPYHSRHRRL
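In this qHTS format, compounds are incubated with 1.5 nM cruzain for 15 min at room temperature before 2 uM Z-FR-AMC is added. Release of AMC is followed at 360/450 nm, and progress is taken as the 60 s fluorescence difference.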
Lassa entry inh = inhibitors of Lassa virus binding or cell entry. Lassa virus pseudotype entry inhibition, cell reporter; control for the full effect not named in the record. Potency, µM (series often up to 37.9 µM), without a hit: top-dose activity change, negative = inhibition, most hits filed as inhibitors. actives 1.2% (n = 300,000). AID 540256; active means well fitted inhibition curve with a large enough effect; inconclusive means small, poorly fitted or top-dose-only effect, or effect the other way; inactive means flat fitted curve, though single readings scatter; tested in HEK293 cells; note: % is set by controls: 0 for no effect and ±100 for the full control effect; nearly all actives have a fitted effect of over 50% in size; luciferase read-out
SARS PLpro yeast = blocks SARS-CoV papain-like protease in a yeast assay | actives 0.19% (n = 330,000) | S. cerevisiae expressing SARS-CoV PLpro, growth rescue; control for the full effect not named in the record | AID 485353 | Potency, µM (titrated, usually from 32.9 µM), without a hit: top-dose activity, positive = growth rescue; active means well fitted rising curve with a large enough effect; inconclusive means small, poorly fitted or top-dose-only effect; inactive means no such curve, though single readings can be large or run the other way; note: 0% is about no effect; nearly all actives have a fitted effect of over 55% in size; growth read by luminescence after 48 h
Cruzain noTriton = blocks cruzain activity in detergent-free assay | P25779 | purified cruzain, Z-FR-AMC fluorescence, no detergent | actives 2.3% (n = 200,000) | Potency, µM, for inactives: max response, negative = inhibition, actives largely listed as inhibitors;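 note: plate controls were enzyme without inhibitor for no effect and buffer without enzyme for full effect; nearly all actives have a fitted effect of over 40% in size; top concentration of the series not given in the record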
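Purified cruzain at 1.5 nM, pre-incubated 15 min with compound at room temperature in 100 mM sodium acetate pH 5.5, 5 mM DTT, 0.00005% Triton X-100. Reaction started with 2 uM Z-FR-AMC; AMC fluorescence increase over 60 s gives rate.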
NS1 inh = influenza NS1 inhibition; S. cerevisiae slowed by influenza A NS1, growth recovery by OD600; Potency, µM (top dose mostly 46.1 µM), inactives show at the highest dose activity, positive = more growth; actives 0.4% (n = 270,000); AID 2326; active means well fitted rising curve with a large enough effect; inconclusive means small, poorly fitted or top-dose-only effect; inactive means no such curve, though single readings can be large or run the other way; note: nearly all actives have a fitted effect of over 50% in size
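Growth recovery, yeast-based: influenza A NS1 expressed in S. cerevisiae causes slow growth, and suppressors are detected by OD600. The parent strain without NS1 is used as positive control.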
* marks the source's active call; other numbers are inactive results; ? = inconclusive; / = not tested or not shown; & = joins results of further samples; [ ] = another dose, or the depositor's remark. Unless noted, calls come from the whole dose curve; as a rule, active = well fitted curve in the direction sought with a large enough effect; inconclusive = small, poorly fitted or top-dose-only effect, or another doubt; inactive = no such curve, though single readings can be large; an effect the other way counts as inactive or inconclusive. Potency is the fitted concentration of half-maximal effect. Hits appear at their usual frequency; any-hit rate near 4.7%.

SMILES | Marburg entry inh | 2A StopGo | RE007 growth inh | Cruzain inh Det | Lassa entry inh | SARS PLpro yeast | Cruzain noTriton | NS1 inh
Clc1ccccc1OCc1nn2c(-c3ccncc3)nnc2s1 | -16.6% | / | 12.2% | 2.6% | -24.2% | ? | 2.8% | -6.2%
CC(C)(C)c1ccc(C(=O)Oc2ccc3c(c2)OCC3=O)cc1 | -1.5% | 28.8% | -0.9% | 2.9% | -29.2% | -9.4% | 0.6% | 13.0%
COc1cnn(-c2ccc(Br)cc2)c(=O)c1SCc1ccccc1 | ? | 26.7% | -12.6% | -6.7% | -5.9% | -2.3% | -6.3% | -9.1%
O=C(NNC(=S)NCc1ccco1)c1ccc(Cl)s1 | 0.6% | 13.6% | 22.1% | 2.7% | 13.3% | 6.0% | -6.3% | -2.0%
O/N=C(\c1ccc2c(c1)OCCO2)C1CCCCC1 | ? | ? | 1.6% | -3.0% | -1.1% | -2.3% | 0.4% | -6.9%
O=C(NCCCN1CCN(CCCNC(=O)c2ccc3c(c2)OCO3)CC1)c1ccc2c(c1)OCO2 | ? | -28.4% | -11.9% | 2.3% | 1.7% | 6.2% | 9.8% | 1.7%
CCOC(=O)c1cnn2c(C)cc(-c3ccc(F)cc3)nc12 | -13.0%[46.1 µM] | -8.7% | 0.0% | -5.8% | ? | 5.3% | 14.2% | -18.7%
COc1ccc(NC(=O)COc2ccc(-c3nn(C)c(=O)c4ccccc34)cc2)cc1 | ? | -14.3%&-15.9% | 1.2% | -2.5% | -6.0%[46.1 µM] | -0.1% | -3.1% | 3.7%
Cc1nn(Cc2ccc(C(=O)Nc3nccs3)cc2)c(C)c1Cl | -29.6% | 9.9% | -12.0% | 1.1% | 0.0% | -18.0% | -4.8% | -11.3%
COc1c(Cl)ccc(Cl)c1C(=O)NCc1ccco1 | 6.6%[46.1 µM] | -0.4% | 33.1% | / | -23.9% | 2.6% | / | /
COC(=O)c1cc(C)sc1NC(=O)CSc1ncccn1 | / | -23.2% | 8.3% | / | / | -0.9% | / | -36.8%
COc1cccc2cc(C(=O)N3CCCCC3C)c(=O)oc12 (stereo not given) | 19.5% | 11.6% | 1.2% | -1.2% | 14.6% | 9.8% | -12.9% | 1.6%
Cc1cc(C)c2c(NC(N)=S)n[nH]c2n1 | 14.0%[46.1 µM] | 5.9% | 15.8% | / | -10.7% | -0.2% | / | /
O=C(NCCCCc1ccccc1)c1cc([N+](=O)[O-])cc([N+](=O)[O-])c1 | -28.9%[46.1 µM] | -9.1% | ? | / | -15.7%[46.1 µM] | -6.3% | / | -16.0%
CC(C)(C)NC(=O)C1CC(=O)N(CCc2ccc(F)cc2)C1 (stereo not given) | -4.1% | 4.7% | -14.9% | / | -3.4% | -9.6% | / | -17.8%
CCCCc1c(C)nc(N)[nH]c1=O | 8.4% | 4.7% | 30.7% | 9.1% | 2.7% | -2.5% | 2.6% | -7.9%
O=C(Nc1cccc(Cl)c1)Nc1nnc(CSCCOc2ccc(Cl)cc2)s1 | ? | ? | 1.7% | -3.8% | ? | 23.6% | ? | 0.1%
CC(C)n1c(SCC(=O)NCc2ccco2)nc2c1c(=O)n(C)c(=O)n2C | 2.5% | 0.7% | -8.4% | -1.9% | -7.1% | 1.2% | 0.7% | -2.8%
Cc1cccn2c(=O)c3cc(C(=O)NCC4CCCO4)c(=N)n(C4CCCCC4)c3nc12 (stereo not given) | ? | -19.7% | -21.9% | / | ? | 0.1% | / | -2.2%
Cn1c(CN2CCCCC2)nc2cc(NC(=O)c3cccs3)ccc21 | 5.4% | -3.0% | -4.4% | -4.8% | 17.0% | 0.8% | 7.8% | 2.7%
C/C(=N\OC(=O)c1cccc(C)c1)c1sc(-c2ccccc2)nc1C | -1.3% | 62.2%[activator] | 2.0% | -0.7% | 15.4% | -4.6% | 2.3% | -5.1%
O=S(=O)(Nc1cccc(-c2ccc(N3CCOCC3)nn2)c1)c1ccc(F)cc1F | / | 27.6% | / | -5.8% | 17.3%[46.1 µM] | / | -13.0% | /
N#CCCN(Cc1ccccc1)C(=O)Nc1ccc(F)cc1 | 0.5%[46.1 µM] | -5.7% | 0.1% | / | 15.0% | -1.6% | / | 1.1%
CC(C)C(=O)Nc1nnc(SCC(=O)Nc2ccc3c(c2)OCO3)s1 | 2.7% | -14.2% | 1.0% | -1.1% | -2.0% | 29.8% | 6.3% | 16.0%
Cc1noc(C)c1C(=O)OCC(=O)NCCC1=CCCCC1 | 0.0% | 8.0% | 2.2% | 2.5% | -3.7% | 11.4% | 4.0% | -1.6%
Cc1nc(SCC(=O)N2CCN(c3ccccc3)CC2)n[nH]1 | -8.7%[46.1 µM] | -12.0% | 9.3% | / | / | 2.6% | / | 3.6%
COCCNC(=S)N(CCc1c(C)[nH]c2ccc(F)cc12)Cc1cccnc1 | / | -5.3% | 12.2% | / | / | 0.4% | / | -0.7%
COC(=O)C(Cc1ccccc1)NC(=S)NC(=O)c1ccccc1 (stereo not given) | ? | 21.7% | -28.6% | / | -25.5% | -3.2% | / | /
CN(C)/C(=N\OC(=O)c1ccccc1)c1nonc1N | -23.2% | 4.1% | -12.1% | 0.5% | 0.8% | 12.7% | -5.7% | 14.3%
O=C(CN1CCN(Cc2ccc(Cl)cc2)C1=O)NCCCN1CCOCC1 | / | -24.0% | -3.2% | 1.6% | / | 3.0% | 2.9% | -3.1%
CCOc1ccc(S(=O)(=O)Nc2ccc(C(=O)NNC(=O)c3ccncc3)cc2)cc1 | 28.5% | 63.0%[activator] | 0.2% | / | 7.5% | -0.8% | / | /
COc1cccc(-n2c(=O)c3sc4ccccc4c3n(CC(=O)Nc3ccccc3C)c2=O)c1 | -0.2%[46.1 µM] | -5.1% | / | -0.3% | 0.5%[46.1 µM] | / | -9.1% | /
Cc1nc(SCc2ccccc2C)n[nH]1 | 28.0% | 31.2%[activator] | -14.4% | 1.2% | 4.9% | -10.3% | -2.3% | -40.9%
CN(C)n1cnc2ccsc2c1=O | -0.2%[46.1 µM] | -8.5% | -10.1% | / | -1.8% | -0.2% | / | 2.3%
O=C(Cc1ccc(Cl)cc1)Nc1ccc(S(=O)(=O)Nc2ncccn2)cc1 | / | -5.1% | 0.3% | / | / | 8.0% | / | 6.3%
O=C(c1ccco1)N1CCN(C(=O)c2ccc(CS(=O)c3ccc(F)cc3)o2)CC1 (stereo not given) | / | -4.2% | 1.4% | / | / | 5.7% | / | 3.1%
COc1ccc(-n2ncc3c(N4CCCCC4)ncnc32)cc1 | / | 10µM* | -8.1% | -5.4% | / | -14.8% | -2.9% | -17.1%
COc1ccc(OC)c(/C=C/C(=O)N(C)CC(=O)Nc2ccc(N3CCOCC3)cc2)c1 | 27.4% | -28.1% | -5.5% | / | ? | -1.3% | / | /
COC(=O)NCC(c1cccnc1)N1CCN(c2ccccc2OC)CC1 (stereo not given) | 4.6% | -26.4% | 2.0% | 3.8% | 1.5% | -4.9% | 1.4% | -2.8%
O=C(N/N=C/c1ccc2c(c1)OCO2)c1ccc(NC(=O)c2ccc(F)cc2)cc1 | -13.3%[46.1 µM] | 2.5% | 6.2% | / | 3.1%[46.1 µM] | 7.0% | / | 9.6%
COc1ccccc1N1CCN(C(=O)CSc2nc(-c3ccc(C(C)C)cc3)no2)CC1 | / | -6.0% | / | 2.7% | ? | / | ? | /
COc1ccc(Cl)cc1S(=O)(=O)n1nnc2ccccc21 | -1.8% | 16.9% | 10.7% | 4.2% | 24.2% | -2.1% | -8.4% | -11.5%
COCCNC(=O)CCCn1c(=O)c2ccccc2n(CC(=O)NCCC2=CCCCC2)c1=O | 0.9%&3.2% | -21.9% | 24.5% | 0.4% | 17.8% | 1.1% | 14.8% | ?
O=C(CSC1=Nc2ccccc2C2=NC(Cc3c[nH]c4ccccc34)C(=O)N12)NC1CCCCC1 (stereo not given) | -4.7% | 12.0% | 13.6% | -3.0% | ? | 5.2% | 11.0% | 4.4%
Cc1nc(C(=O)NCCC(C)C)sc1C1(C)CC(c2ccccc2)=NO1 (stereo not given) | / | -21.7% | 4.8% | / | / | -3.6% | / | -32.9%
Nc1ccc(-c2nc3ncccc3o2)c(O)c1 | / | 64.1%[activator] | -20.5% | / | / | 0.9% | / | -43.0%
Cc1c(Cl)c(-c2n[nH]c(=S)n2-c2ccccc2)nn1C | ? | -3.8% | -0.9% | -0.2% | -3.1% | 1.6% | -9.3% | 2.9%
O=c1c2ccccc2nc2n1CCC2 | -17.7% | -7.7% | 22.5% | ? | -0.1% | -0.1% | 12.6µM* | ?
CCOc1ccc(NS(=O)(=O)c2ccc3[nH]cc(C(=O)N4CCCCCC4)c(=O)c3c2)cc1 | 8.3%[46.1 µM] | -1.0% | / | -5.2% | 2.7%[46.1 µM] | / | 0.2% | /
O=C(c1ccco1)N(Cc1nc2ccccc2c(=O)[nH]1)C1CCCC1 | ? | -1.4% | -11.6% | 2.3% | 9.2% | -1.7% | -8.4% | -2.7%
O=C(NNc1cccc(Cl)n1)C(F)(F)F | -7.4%[46.1 µM] | 0.6% | -10.6% | / | 26.9%[46.1 µM] | 0.6% | / | /
O=C(CCS(=O)(=O)c1ccc(Cl)cc1)NCCc1c[nH]c2ccccc12 | ? | -10.3% | 9.4% | / | 2.6%[46.1 µM] | 1.5% | / | /
C=CCn1c(C)cc(C(=O)CN2C(=O)c3ccccc3S2(=O)=O)c1C | ? | 39.8µM* | 36.3% | / | ? | -4.1% | / | /
COc1ccc(-c2c3c(cc(C)[n+]2[O-])oc2ccc(OC)cc23)cc1 | -21.6% | 28.2µM* | -15.0% | -3.5% | ? | -1.0% | 12.8% | 1.4%
Cc1ccc(-c2nnc(-c3cccc(Br)c3)o2)cc1 | ? | 54.3%[activator] | -14.6% | 5.7% | -2.0% | -6.5% | 0.4% | -19.9%[9.22 µM]
Cc1nc2c(C(=O)NCc3ccco3)cnn2c(C)c1Cc1ccc(F)cc1Cl | ? | ? | 0.1% | -16.2% | -11.2% | -3.3% | -5.5% | -34.0%
COc1cccc(-c2nc(SCc3cccc(Br)c3)n3[nH]c(=O)cc3n2)c1 | / | -25.3% | / | -0.1% | 15.4%[46.1 µM] | / | 4.3% | /

High-throughput results (PubChem)
